# CDC25B-CDK2 inh = human CDC25B-CDK2/CyclinA binding inhibition; P30305+P24941; HTRF CDC25B-CDK2/CyclinA binding, anti-His/anti-Flag; stronger effect = higher value; z-score (test concentration not listed); actives 0.72% (n = 94,000); AID 1259370;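 further: score is relative to mean and SD of negative controls; strong numbers were not always called active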
# TAR Tat displ = HIV-1 TAR-Tat binding disruption; HIV-1 TAR RNA, Tat peptide displacement FRET; stronger effect = higher value; z-score (concentration not given with the values); actives 0.6% (n = 100,000);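 further: score is relative to mean and SD of negative controls; some compounds called inactive have numbers as strong as hits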
# Starred values were filed as active, the others as inactive; . = not tested or not shown.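 How the source made its calls: active means z-score from 3 up in half or more of its runs; inactive means the rest.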 Random draw from the library (roughly 0.87% active in at least one column).
SMILES,CDC25B-CDK2 inh,TAR Tat displ
Cc1cc(C)n2nc(-c3cccc(Br)c3)cc2n1,-1.17,-1.41
CCC1CN(C(=O)Nc2ccc(F)c(Cl)c2)c2ccccc2O1 (centres undefined),.,2.1
CC(=O)C12c3ccccc3C(c3ccccc31)C1C(=O)N(c3cccc(C(=O)O)c3)C(=O)C12 (centres undefined),-1.58,.
O=C(CCCn1c(=O)c2ccccc2n(Cc2cc(=O)n3ccccc3n2)c1=O)NCc1ccco1,-2,2.4
CCOC(=O)c1ccc2nc(-c3ccc(F)cc3)cc(OCC)c2c1,-1.46,2.36
COc1ccc(NC(=O)C(C(=O)Nc2ccc(OC)cc2)C23CC4CC(CC(C4)C2)C3)cc1,-1.49,.
CCCNS(=O)(=O)c1cc2c3c(c1)CC(=O)N3CCC2,.,1.32
CCOCc1ccc(O)c2ncccc12,-0.54,.
CCOC(=O)c1c(CN(CC)CC)oc2ccc(OC)cc12,-0.42,0.13
CN(C)S(=O)(=O)c1ccc2c(c1)N(CC(=O)Nc1ccncc1)CCS2,.,-2.48
CCCCCn1c(C2CCCO2)nc2ccccc21 (centres undefined),-1.4,1.41
CCn1c(NCc2ccccn2)nc2ccccc21,0.26,0.03
Cc1oc2ncnc(N3CCOCC3)c2c1C(=O)Nc1ccc2c(c1)OCCO2,.,0.78
CN1CCN(C(=O)c2cc3c(s2)-c2ccccc2S(=O)(=O)C3)CC1,-0.91,0.75
CN(C)c1ccc(CNS(=O)(=O)c2ccc3c(c2)NC(=O)CCS3)cc1,.,2.38
CCOc1ccc(-n2c(C)nnc2SCc2nc(-c3cccs3)no2)cc1,-2.1,0.69
CC(=O)Nc1cc2ccccc2oc1=O,0.42,.
O=c1nc(-c2ccccc2)c(-c2ccccc2)n[nH]1,0.52,3.68
COc1ccc(OCc2nc3ccccc3n2CCOc2ccccc2)cc1,-0.34,0.57
CC1(C)CC(=O)C=C(SCC(=O)Nc2ccc(Cl)cc2)S1,-0.71,.
C=C1CC[C@H](O)C/C1=C/C=C1\CCC[C@]2(C)C([C@H](C)/C=C/[C@H](C)C(C)C)CC[C@@H]12 (some centres undefined),.,1.36
O=C(CSc1nccn(-c2ccc(F)cc2)c1=O)NC1CCCC1,.,-0.28
CCOC(=O)c1c(NC(=O)C2C3CCC(O3)C2C(=O)O)sc2c1CCCC2 (centres undefined),-2.97,.
Cc1ccc(CC(=O)O)cc1,-0.89,.
CC(C)NC(=O)CCS(=O)(=O)c1cccc2nonc12,-1.36,.
Cc1nn(-c2nc3ccccc3[nH]2)c2c1C(c1ccncc1)CC(=O)N2 (centres undefined),.,1.47
COC(=O)Nc1ccc2c(c1)CCC(=O)N2C,.,0.85
CCOC(=O)c1sc(SC)nc1N,-0.55,2.33
CCOC(=O)c1sc2ccccc2c1S(=O)(=O)Nc1ccccc1OCC,.,0.01
CCC(O)c1nc2ccccc2n1CCC1CCCCC1 (centres undefined),2.42,-0.23
CCC(=O)Oc1c(-c2ccc(Br)cc2)c2nc3ccccc3nc2c2ccccc12,-2.1,.
CC(C)(C)C1CCc2c(sc3nnn(CC(N)=O)c(=O)c23)C1 (centres undefined),1.47,1.23
CC(C)CNC(=O)C(=O)Nc1c2c(nn1-c1ccc(F)cc1)CSC2,.,0.91
CCN(C(=O)c1noc2c1CSc1ccccc1-2)c1cccc(Cl)c1,-1.34,0.67
CC1CSc2ccc(S(=O)(=O)Nc3ccc(F)cc3)cc2NC1=O (centres undefined),.,1.02
Cc1oc(-c2cccc(Cl)c2)nc1Cn1c(=O)n(CC2CCCO2)c(=O)c2ccccc21 (centres undefined),-0.59,0.55
O=C(NCc1cccn1Cc1ccccc1)NCC1CCCO1 (centres undefined),.,-0.64
O=C(CCn1c(=S)[nH]c2ccsc2c1=O)NCc1ccco1,-0.75,.
O=C(Nc1ccc(-c2nc3ccccc3o2)c(O)c1)c1ccc(-c2ccc([N+](=O)[O-])cc2)o1,-2.69,.
CCn1c(SCc2nc(-c3ccc(OC)cc3OC)no2)nnc1-c1ccncc1,-1.19,2.71
O=C(CSc1nnc2ccccn12)Nc1ccc(-c2nc3ccccc3s2)cc1,-0.58,-0.39
C(#Cc1ccccc1)CNCCc1c[nH]c2ccccc12,-0.56,-5.59
Cc1nc(-c2csc(S(=O)(=O)Nc3ccccc3Cl)c2)no1,.,0.4
CCCN(CCC)C(=O)Cn1c2cc(OC)c(OC)cc2c2nc(=O)cc(C)n21,-0.89,0.81
CCOC(=O)N1CCN(S(=O)(=O)c2ccc3c(c2)NC(=O)C(C)S3)CC1 (centres undefined),.,0.25
N#CC(C(N)=S)=P(c1ccccc1)(c1ccccc1)c1ccccc1,-2.73,.
CC1CC(=O)Nc2cc(S(=O)(=O)N(C)C3CCCCC3)ccc2S1 (centres undefined),.,1.27
O=C(CSCc1cccc2ccccc12)NNC(=O)c1ccccc1Cl,-0.03,.

# 2 successive records already listed, quoted:
SMILES,CDC25B-CDK2 inh,TAR Tat displ
CC1CC(=O)Nc2cc(S(=O)(=O)N(C)C3CCCCC3)ccc2S1 (centres undefined),.,1.27
O=C(CSCc1cccc2ccccc12)NNC(=O)c1ccccc1Cl,-0.03,.

# Next part.
SMILES,CDC25B-CDK2 inh,TAR Tat displ
Cc1nnsc1C(=O)ON=C(c1cccs1)c1cccs1,-1.78,.
O=C(c1ccc(-c2cccs2)s1)N1CCN(C2c3ccccc3-c3ccccc32)CC1,0.87,.
CCC1(C)Cc2c(sc3c2c(=O)n(C)c2nnc(SCC(=O)c4ccccc4)n32)CO1 (centres undefined),-1.04,.
Cc1c(N2CCN(S(C)(=O)=O)CC2)c(=O)n(CC(C)C)c(=O)n1-c1ccccc1,.,-0.1
CCOc1c(Nc2ccc(C(C)C)cc2)c(=O)c1=O,.,1.14
COC(=O)[C@H](Cc1ccccc1)NC(=O)[C@@H](N)CC(=O)O,.,-0.7
NS(=O)(=O)c1ccc(NC(=O)CCCC(=O)O)cc1,-1.13,0.54
Cn1c(=O)[nH]c(=O)c2c1nc(N1CCCC1)n2CCSc1nnnn1-c1ccccc1,2.66,.
CC1CCCCN1CCNC(=O)CCCn1c(=O)c2cccn2c2cccnc21 (centres undefined),.,-3
c1ccn2c(SCc3ccc4c(c3)OCCO4)nnc2c1,-0.18,.
CCNC(=O)c1c(NC(=O)c2cc(=O)c3ccccc3o2)sc2c1CCCC2,0.6,-0.6
NC1=NC2(CS1)CSC(N)=N2,-0.04,.
CN(C)S(=O)(=O)c1ccc(C(=O)Nc2nc3ccccc3c3nc4ccccc4n23)cc1,0.23,-3.2
CN(CCNC(=O)CN1C(=O)c2cccnc2Sc2ccccc21)C1CCCCC1,.,0.87
Cc1noc(C)c1S(=O)(=O)N1CCN(C(=O)C2CCCO2)CC1 (centres undefined),-1.67,.
CCN(C(=O)c1cc2c(s1)-c1ccccc1S(=O)(=O)C2)c1ccc(F)cc1,-4.1,1.7
Cc1ccc(C(=O)CC2(O)C(=O)N(Cc3ccc4c(c3)OCO4)c3ccccc32)cc1 (centres undefined),-0.12,.
CN1c2ccc(Cl)cc2-c2nc(SCC(=O)Nc3ccc(F)c(F)c3)ncc2S1(=O)=O,.,-0.32
COc1ccc(Nc2nc(N3CCCC3)nc(N)c2[N+](=O)[O-])cc1,.,1.14
OC(CNCc1cc2ccccc2s1)C(F)(F)F (centres undefined),-0.78,.
O=S(=O)(Nc1cccc(N2CCCS2(=O)=O)c1)c1cccc(Cl)c1,.,-1.63
COc1cccc(/C=C/c2nc(C#N)c(NC(C)c3ccccc3)o2)c1 (centres undefined),-0.63,0.07
CCCN1C(=O)NC2(O)C(=O)c3ccccc3C12O (centres undefined),-0.41,.
CC1=C(C(=O)Nc2c(C)cc(C)cc2C)C2(CCCCC2)OC1=O,-1.33,0.92
Cc1nc(-c2ccc(S(=O)(=O)NC3CC3)cc2)co1,.,0.12
CCc1ccc(-c2nc3c(C#N)c[nH]n3c2NC2CCCC2)cc1,-0.78,-1.01
Cc1csc(NC(=O)CSc2nc(=O)cc(N)n2-c2ccc(F)cc2)n1,.,0.59
Cc1ccccc1C1C2=C(CCCC2=O)Nc2nc(SCc3ccc(F)cc3)nn21 (centres undefined),-2.61,1.56
N#Cc1ccc(OS(=O)(=O)c2cc(C(F)(F)F)cc(C(F)(F)F)c2)cc1,-0.98,.
Cc1ccnc(NC2OC(=O)c3ccccc32)c1 (centres undefined),-0.51,0.5
CCn1c(=O)oc2cc(NS(=O)(=O)c3ccc(F)cc3)ccc21,.,2.96
CCOCCOC(=O)C1=C(C)NC2=C(C(=O)CCC2)C1c1coc2ccccc2c1=O (centres undefined),-1.29,2.98
Nc1nc(-c2cccnc2)nn1C(=O)c1ccc(F)cc1,0.35,-0.31
CC1=C(c2ccccc2)S(=O)(=O)NC1=NCCCN1CCOCC1,-1.79,-1.33
Cn1c(=O)n(CC2CCC(C(=O)NCc3ccco3)CC2)c(=O)c2sccc21 (centres undefined),.,1.99
COc1cc(OC)c(NC(=O)CSc2nnc(-c3ccoc3C)o2)cc1Cl,0.9,2.98
Cc1cc(N2CCN(CCO)CC2)n2nc(C(F)(F)F)c(-c3ccc(F)cc3)c2n1,-1.34,0.92
O=C(O)COCc1nc2cccnc2n1-c1ccccc1,.,1.26
CN1CCN(c2ccc(N3CC(O)=C(c4nc5ccccc5n4C)C3=N)cc2)CC1,-0.27,0.59
Cc1ccc(-n2ncc3c(NCC(C)C)ncnc32)cc1,.,0.44
Cc1cc(-c2ccc(C)c(S(=O)(=O)NCCc3ccccc3)c2)on1,.,0.8
COc1ccc(Oc2ccc(C(F)(F)F)cc2NS(=O)(=O)c2cccc3nonc23)cc1,-1.35,.
CCOC(=O)c1ccc(N2CSC3=C(C#N)C(c4ccc(C)cc4)CC(=O)N3C2)cc1 (centres undefined),6.13*,-1.62
COC(=O)c1cc(S(=O)(=O)Nc2ccccc2F)c[nH]1,.,4.69
O=C(Cc1c(C(=O)O)[nH]c2ccccc12)NCCN1CCOCC1,-0.42,.
Cc1ccc(C(=O)C2=C(N)OC3=C(C(=O)CC(C)(C)C3)C2c2ccccc2)cc1 (centres undefined),-0.76,.
CN(C(=O)c1ccccc1)C1CCCCC1,-1.18,.
COCCNC(=O)C1=CC(c2ccco2)=NS(=O)(=O)N1C,-2.01,-0.85

# Three entries from above, sorted by molecular weight, ascending:
SMILES,CDC25B-CDK2 inh,TAR Tat displ
COC(=O)c1cc(S(=O)(=O)Nc2ccccc2F)c[nH]1,.,4.69
Cc1cc(N2CCN(CCO)CC2)n2nc(C(F)(F)F)c(-c3ccc(F)cc3)c2n1,-1.34,0.92
COc1ccc(Oc2ccc(C(F)(F)F)cc2NS(=O)(=O)c2cccc3nonc23)cc1,-1.35,.

# Following part:
SMILES,CDC25B-CDK2 inh,TAR Tat displ
Cc1cc2c(cc1S(=O)(=O)Nc1ccc(Cl)cn1)OCCN2C,.,1.53
Cc1nnc2c(N3CCN(CCO)CC3)nc3ccccc3n12,-0.54,0.15
O=c1oc2c(Br)cc(NS(=O)(=O)c3ccc(Cl)cc3)cc2s1,-2.73,1.31
CCOc1nc(-c2ccccc2)ccc1-c1noc(-c2ccncc2)n1,-0.5,-1.12
COCCCNS(=O)(=O)c1ccc2[nH]c(=O)ccc2c1,.,0.57
O=C(CCc1nnc2ccc(NCc3ccc4c(c3)OCO4)nn12)Nc1ccc(Cl)cn1,.,1.94
CCOC(=O)c1sc(=S)n(-c2c(C)cccc2C)c1N,.,1.32
Cc1c(C(=O)O)c2ccccc2[nH]c1=O,0.77,-1.11
NS(=O)(=O)c1ccc(-n2ncc3c(=O)[nH]c(SCC(=O)NC4CCCCC4)nc32)cc1,0.36,.
C=CCSc1nc(N2CCOCC2)c2c(c1C#N)CC(C)(C)SC2,-1.63,1.47
CCOc1ccc(-c2noc(CSc3nnc(C)n3-c3ccc(CC)cc3)n2)cc1,1.26,-0.21
N#Cc1cnc(SCc2ccc(Cl)cc2)nc1N,-1.54,.

# Random excerpt: 5 compounds from above, in no set order.
SMILES,CDC25B-CDK2 inh,TAR Tat displ
COc1ccc(Nc2nc(N3CCCC3)nc(N)c2[N+](=O)[O-])cc1,.,1.14
N#Cc1ccc(OS(=O)(=O)c2cc(C(F)(F)F)cc(C(F)(F)F)c2)cc1,-0.98,.
O=c1nc(-c2ccccc2)c(-c2ccccc2)n[nH]1,0.52,3.68
CCOc1ccc(-c2noc(CSc3nnc(C)n3-c3ccc(CC)cc3)n2)cc1,1.26,-0.21
CC1CSc2ccc(S(=O)(=O)Nc3ccc(F)cc3)cc2NC1=O (centres undefined),.,1.02

# The list goes on:
SMILES,CDC25B-CDK2 inh,TAR Tat displ
Cc1occc1C(=O)N/N=C/c1ccc(-c2cccc([N+](=O)[O-])c2)o1,-0.77,.
Cc1cccc(C)c1OCc1nc2c3cnn(-c4ccccc4F)c3ncn2n1,-2.81,1.27
C=Cc1ccc(Cn2c(C(=O)OC)cc3sccc32)cc1,-1.29,-0.94
CCC(C)NC(=O)NCc1cccn1Cc1c(C)cc(C)cc1C (centres undefined),.,1.22
CC(C)CCN(Cc1ccco1)S(=O)(=O)c1ccc2c(c1)CCCC(=O)N2,.,-0.35
CC1=C(c2cccc(Br)c2)S(=O)(=O)N=C1Nc1cccc(F)c1,-6.07,-1.48
COc1cn(CC(=O)NCC2CCCO2)c(CSc2ccccc2)cc1=O (centres undefined),.,1.61
Cc1cc(Br)c(NC(=S)NNc2ccccc2)c(Br)c1,-0.94,.
Cc1cn(Cc2ccccc2Cn2cc(C)c(=O)[nH]c2=O)c(=O)[nH]c1=O,-2.15,.
Cc1nn2c(N3CCN(CCO)CC3)cc(C(C)(C)C)nc2c1-c1ccc(F)cc1,-1,0.54
Cn1c(C(=O)N2CCC(C(=O)NCCCN3CCCC3)CC2)cc2sccc21,-0.65,0.06

# Quoted from the listing:
# Cc1c(C(=O)O)c2ccccc2[nH]c1=O in TAR Tat displ: -1.11
# COc1ccc(Nc2nc(N3CCCC3)nc(N)c2[N+](=O)[O-])cc1 in TAR Tat displ: 1.14
# COc1ccc(NC(=O)C(C(=O)Nc2ccc(OC)cc2)C23CC4CC(CC(C4)C2)C3)cc1 in CDC25B-CDK2 inh: -1.49
# Cc1csc(NC(=O)CSc2nc(=O)cc(N)n2-c2ccc(F)cc2)n1 in TAR Tat displ: 0.59

# Assay outcomes deposited in PubChem BioAssay by Center for Chemical Genomics, University of Michigan.
